# Calb FLC: C. albicans growth modulation with fluconazole; C. albicans CaCi-2 (fluconazole-resistant clinical isolate) + fluconazole, Alamar Blue growth, 48 h; growth inhibition, % (no concentration beside the values); actives 0.57% (n = 300,000); AID 1979;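 active means most replicates above 75%; inconclusive means exactly half above 75%; inactive means most below 75%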;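 further: all wells also contain fluconazole at 8 µg/ml as a sub-toxic cotreatment; 0% = median of DMSO wells and 100% = median of geldanamycin control wells; wells of about 8 µL received 7.5 nL stock; the first replicate is given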
# A1 inh: inhibitors of the anti-apoptotic protein A1, read as caspase activation; MEF A1-2A-BIM cells, Caspase-Glo 3/7 luminescence, 3 h; percent of clofoctol response, vehicle zero; actives 0.066% (n = 330,000); caspase activation, % (concentration not given with the values); AID 2462;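 active means over half of replicate activation scores above 10%, or exactly half above 10 with the replicate mean above 10; inconclusive means replicate mean below 10 yet half the replicates above 10; inactive means over half of replicates below 10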;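 further: wells of about 30 µL received 50 nL stock; many hits fall short of the cut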
# Beta cell apopt: beta cell apoptosis inhibition. INS-1E cytokine-induced death, ATP luminescence, 48 h; percent of positive-control rescue, neutral wells zero. actives 0.8% (n = 300,000). protection from apoptosis, % (concentration not given with the values);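 active means all replicates at 75% or more, or half of them and the mean; inconclusive means half reach 75% but not the mean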;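 further: 0% = cytokine-treated negative control wells and 100% = positive control rescue; higher means more ATP so stronger rescue from cytokine killing; wells of about 40 µL received 100 nL stock; the first replicate is given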
# RanGTP-Impb inh: disruptors of Ran-importin-beta complex formation – biochemical, FRET, CFP-Ran, YFP-importin-beta, homogeneous, primary screen; inhibition, % (test concentration not listed); actives 1.1% (n = 300,000); cell-free CFP-Ran/YFP-importin-beta FRET ratio;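 active means most replicates above 15%; inconclusive means exactly half above 15%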;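 further: 0% = DMSO wells and 100% = Ran loaded with GDP instead of GTP; wells of about 40 µL received 100 nL stock; the first replicate is given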
# T cruzi repl: blocks replication of Trypanosoma cruzi; T. cruzi beta-gal in NIH3T3, luminescence, 90 h; inhibition, % (no concentration beside the values); actives 1.4% (n = 300,000); AID 1885;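 active means mean inhibition across valid replicates above about 55%, limit read from the data; inconclusive means mean below that limit but half or more replicates reach it; inactive means mean below it, under half of replicates reach it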;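 further: signal also drops with host cell toxicity which is not excluded here; 0% = plate median of DMSO wells and 100% = zero luminescence signal; higher percent means less beta-gal luminescence so fewer parasites; stock transfer was 50 nL into about 50 µL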
# AF4-AF9 inh: MLL-AF4/AF9 protein interaction inhibition; P42568; AlphaScreen, biotin-AF4 peptide binding to FLAG-AF9; inhibition, % at 10 µM; AID 651704; actives 0.47% (n = 350,000);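 active means every replicate reaching a set inhibition limit, whatever the replicate mean, cut at about 25% in these data; inconclusive means mean inhibition reaches that limit but some replicates miss it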;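 further: 0% = plate neutral control median and 100% = total signal loss; the record names both 10 and 1 µM as test concentration; the first replicate is given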
# Target sequence (P42568 whole entry, looked up): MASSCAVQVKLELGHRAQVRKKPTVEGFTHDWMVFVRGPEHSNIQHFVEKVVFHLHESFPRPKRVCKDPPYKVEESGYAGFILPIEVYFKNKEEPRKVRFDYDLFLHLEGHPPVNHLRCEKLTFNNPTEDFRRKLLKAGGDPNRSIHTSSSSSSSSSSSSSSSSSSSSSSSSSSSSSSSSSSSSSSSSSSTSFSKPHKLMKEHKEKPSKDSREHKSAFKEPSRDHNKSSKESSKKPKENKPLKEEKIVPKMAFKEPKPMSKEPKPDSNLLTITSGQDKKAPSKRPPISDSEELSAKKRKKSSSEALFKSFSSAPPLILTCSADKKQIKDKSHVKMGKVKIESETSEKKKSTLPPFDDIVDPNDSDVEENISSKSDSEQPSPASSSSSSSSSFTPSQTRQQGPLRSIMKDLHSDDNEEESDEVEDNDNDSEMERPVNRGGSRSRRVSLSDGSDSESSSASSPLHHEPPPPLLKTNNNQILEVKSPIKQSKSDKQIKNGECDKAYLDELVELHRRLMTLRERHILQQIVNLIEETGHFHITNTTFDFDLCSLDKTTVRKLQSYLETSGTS
# Vif TR-FRET: HIV-1 Vif–A3G interaction blockers – biochemical, TR-FRET, GST-Vif 1-94, biotin-A3G peptide, dose response retest, primary screen (AID 1117319); TR-FRET GST-Vif / biotin-A3G peptide binding; higher % means a stronger effect; test concentration not given here; strong numbers were not always called active; one-dose inhibition, %; IC50 in µM for titrated hits; actives 0.57% (n = 260,000);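 active means above the screen mean plus three standard deviations and confirmed in dose response; inconclusive means results disagree or hit not tested in dose response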;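 further: Vif residues 1-94 fused to GST binding biotinylated APOBEC3G peptide 110-148; 0% = full assay without inhibitor and 100% = GST in place of GST-Vif; retest series ran down from 100 µM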
# rRNA inh HTS: selective bacterial rRNA inhibition in E. coli; E. coli WT GFP vs humanized-ribosome RFP mutants, fluorescence, 24 h; hits give low values; DMSO median 0, no signal -100; GFP signal change (wild-type ribosome), % (test concentration not listed); actives 1.6% (n = 350,000);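 active means significant combined selectivity score with lowered wild-type GFP, culture density cut under 30%, mutant RFP and density less affected; inactive means any of these conditions unmet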; further: one replicate is shown; some compounds called inactive have numbers as strong as hits
# rRNA inh HTS OD600: recorded beside rRNA inh HTS, whose call it bears; OD600 change, %; measured here: OD600 growth;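 optical density of the mix in the first replicate; 0 = DMSO median and -100 = no signal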
# rRNA inh HTS RFP: also measured in rRNA inh HTS; calls as there; RFP signal change, %; measured here: RFP humanized mutant strains;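 first replicate; 0 = DMSO median and -100 = no signal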
# * = called active by the depositor; u = inconclusive; x = no result given. Only part of the results is shown; count on the stated rates, not on these rows.
SMILES,Calb FLC,A1 inh,Beta cell apopt,RanGTP-Impb inh,T cruzi repl,AF4-AF9 inh,Vif TR-FRET,rRNA inh HTS,rRNA inh HTS OD600,rRNA inh HTS RFP
CC1CCCN(C(=O)C2CC(=O)N(c3ccc(Cl)cc3)C2)C1 (stereo not given),-4,0.9,-5,3.2,0,2.7,-10%,-3,0,-0.9
COC(=O)c1c(-c2ccsc2)oc2ccc(-c3cc(OC)c(OC)c(OC)c3)cc12,1,-0.1,1,-4.6,34,-2.5,x,8,0,-5.6
CCOC(=O)N1CCC(N2CCCC(CO)(Cc3cccc(OC)c3)C2)CC1 (stereo not given),-10,0.6,-3,4.5,17,0.6,2%,3,-2,1.6
COc1ccc(CCN(C)CCC(=O)Nc2c(C)cc(C)cc2C)cc1OC,3,0.1,-5,4.4,47,x,32%,x,x,x
COc1cc(-c2cc(-c3ccc(F)cc3)nc(N)c2C#N)ccc1O,22,0.8,-1,-3.1,-4,0.6,12%,0,1,-1.2
COc1cc(C(=O)Nc2ccc3ccccc3c2)cc(OC)c1OC,9,0.3,x,5.9,-34,-6.4,x,-25*,-18*,-0.7*
O=C(Nc1nc2c(F)cccc2s1)C1CC1,-16,-2.5,-8,u,35,4.8,x,-7,-10,-7.1
COc1cc(/C=C/C(=O)OCC(=O)Nc2ccc3c(c2)OCCO3)ccc1OCC#N,2,-0.1,-10,-1.3,-13,2.4,0%,-4,-4,-7.8
COC(=O)c1ccc(C2/C(=C(\O)c3ccc4c(c3)OCCO4)C(=O)C(=O)N2CCCN2CCOCC2)cc1 (stereo not given),13,0.1,3,-1.7,3,-1.6,2%,12,10,-0.3
Cc1ccc(C2/C(=C(\O)c3cnn(-c4ccccc4)c3C)C(=O)C(=O)N2CCN(C)C)o1 (stereo not given),2,0.0,-1,-1.1,-6,x,2%,x,x,x
COc1cccc(N2CCN(C(=O)CCC(=O)c3ccc(Cl)s3)CC2)c1,x,0.1,0,x,x,6.1,-5%,-13,-12,0.8
CCS(=O)(=O)N1CCC(C(=O)NCc2cccc(OC)c2)CC1,-7,-0.2,-5,-1.6,5,6.7,69%,1,11,-11
CCOc1ccc(S(=O)(=O)n2ccnc2C)cc1,1,0.0,x,-2.2,-18,x,x,x,x,x
O=C(CC(O)(c1ccccc1)C(F)(F)C(F)F)c1cccs1 (stereo not given),-18,0.1,-1,x,-4,x,-6%,-31,-33,-7.6
CCn1c(SCC(=O)Nc2cccc(F)c2)nc2c(c1=O)SC(C)C2 (stereo not given),0,-1.1,2,2.8,1,-2.2,15%,-7,-9,-2.8
Cc1ccc(C(=O)NC(C(=O)Nc2ccccc2)c2ccccc2)cc1 (stereo not given),-25,0.9,-1,-3.2,-1,-21,x,-15,-13,-3.2
COc1ccccc1C1=NOC(C)(c2sc(-c3ccc(Cl)cc3)nc2C)C1 (stereo not given),-2,0.0,6,-3.2,-4,-6.4,-8%,8,13,9.4
COc1cccc(C2N(Cc3ccccc3)C(=O)C2(F)F)c1OC (stereo not given),15,0.4,-5,-2.0,4,0.6,x,-5,-23,0.3
COc1ccc(OC)c(NC(=O)C23CCC(C)(C(=O)C2)C3(C)C)c1 (stereo not given),-1,0.4,-2,0.1,3,x,22%,x,x,x
COc1ccc(/C(O)=C2\C(=O)C(=O)N(CCN(C)C)C2c2cccc(OC)c2OC)cc1 (stereo not given),-14,0.3,-5,1.5,-12,x,0%,x,x,x
CCn1cc(/C=C(\NC(=O)c2ccc(C)cc2)C(=O)NCCN2CCOCC2)c2ccccc21,-8,x,x,0.9,0,2.6,x,6,7,31
O=C(O)COc1ccc(/C=C/c2ccc3cccc([N+](=O)[O-])c3n2)cc1,1,0.7,4,-2.9,2,9.0,3%,-36,-30,-12
Cc1ccc(SCC(=O)Nc2ccc(N3CCOCC3)cc2)c(C)c1,26,0.3,9,2.8,-2,0.1,2%,9,1,-0.3
Cn1cc([N+](=O)[O-])c(C(=O)N(Cc2ccccc2)Cc2ccccc2)n1,-10,-0.8,1,2.5,6,x,-3%,x,x,x
CCOC(=O)N1CCN(C(=O)C(NC(=O)c2ccc(CC)cc2)C(C)C)CC1 (stereo not given),-4,0.1,2,3.6,20,x,13%,x,x,x
Cc1cccnc1NC(=O)CCNC(=O)c1ccccc1Cl,-7,0.8,-1,-3.5,7,1.4,2%,10,16,0.2
CCOC(=O)c1c(C)[nH]c(C(=O)COC(=O)CSC)c1C,3,0.0,-8,-5.2,-5,x,5%,x,x,x
CC(=O)N1CCN(Cc2nc3cc(Cl)ccc3c(=O)[nH]2)CC1,2,0.7,-1,2.7,-8,-13,31%,13,3,7.5
O=C(NCCCN1CCOCC1)c1ccc2nc(Cc3cccc(Cl)c3)oc2c1,16,0.7,2,-1.1,16,2.6,x,5,2,-1.1
COc1cc(Cl)c(C)cc1NC(=O)CSc1ccccc1,40,-0.6,-6,-3.4,5,0.0,4%,-12,-6,-1.8
Cc1nc2sc(C(c3cccc(F)c3)N3CCCC(C)C3)c(O)n2n1 (stereo not given),85*,-0.9,1,-7.6,-6,x,-5%,x,x,x
CCOC(=O)CSc1nc(N)nc(C)c1Cl,38,-0.2,x,1.7,3,0.6,0%,6,-6,-3.9
CC(C)C[C@H](NC(=O)[C@@H]1O[C@H]1C(=O)O)C(=O)NCCCCN=C(N)N,x,-0.1,-9,1.5,-9,-0.4,32%,9,12,0.9
CSc1ccccc1NC(=O)Cn1c([N+](=O)[O-])cnc1C,0,0.6,-4,-2.5,-8,42*,x,9,4,7.2
COc1cccc(/C=C2\SC(=S)N(C(C(=O)O)c3ccccc3)C2=O)c1OC (stereo not given),5,-0.1,-1,-0.5,-4,4.1,28%,-34*,-9.2*,7.3*
CCc1noc(C)c1C(=O)Nc1ccc(C(F)(F)F)cc1,-2,-0.7,3,1.7,8,-4.4,2%,-4,3,-1.5
CN(C(=S)NC(=O)/C=C/c1ccc(F)cc1)C1CCCCC1,-13,0.1,6,24,10,2.6,-12%,-2,-8,-2.0
Nc1ncc(Br)cc1S(=O)(=O)NCCC(=O)N1CCN(c2ccccn2)CC1,29,-1.1,-1,-2.0,-2,-11,x,6,6,-4.0
CN(Cc1ccco1)C(=O)C1CCC(=O)N(CCc2cccc(F)c2)C1 (stereo not given),6,0.4,-4,3.9,-6,-13,x,2,11,-1.1
Cn1nc(OC(=O)Nc2ccccc2)cc1C(F)(F)F,u,-6.8,1,4.8,-27,x,-9%,x,x,x
COc1ccc(Nc2nc(N)nc(CSc3nnc(N)s3)n2)cc1,-5,0.8,-3,-5.1,2,x,7%,x,x,x
O=C(Nc1cccc(Cl)c1)c1cccc(N2C(=O)C3CC=CCC3C2=O)c1 (stereo not given),13,-0.3,-9,-3.7,1,-0.5,x,-1,-14,-2.4
Oc1ccc(NCc2cccc(OCc3ccc(F)cc3)c2)cc1,3,-7.4,55,-3.1,x,10.0,2.4µM*,4,-5,31
CCC(CO)Oc1cc(NCc2ccc(OC)cc2)c2ncn(C(C)C)c2c1 (stereo not given),x,0.1,-8,x,x,11,x,6,0,5.8
Cc1[nH]nc2ncc(C(=O)c3cc(Cl)cc(Cl)c3O)cc12,31,-0.3,-1,-3.0,-7,x,4%,x,x,x
CCCCN(C)CCn1c(=S)[nH]c2ncccc2c1=O,20,-0.1,-3,3.5,-10,x,14%,x,x,x
CCOC(=O)Cn1nc(C)n(-c2ccc(C(C)(C)C)cc2)c1=O,3,0.3,x,5.2,-3,x,-3%,x,x,x
CCn1cc(NC(=O)Nc2ccc(OC)c(OC)c2)c(C(N)=O)n1,4,0.2,2,2.3,1,x,19%,x,x,x
CCCCOc1ccc(C(=O)N2CCNC(=O)C2)cc1,-4,-0.8,-8,2.8,-2,1.1,x,6,-3,0.0

# 12 of the compounds above, as tab-separated lines:
Structure	Calb FLC	A1 inh	Beta cell apopt	RanGTP-Impb inh	T cruzi repl	AF4-AF9 inh	Vif TR-FRET	rRNA inh HTS	rRNA inh HTS OD600	rRNA inh HTS RFP
CN(C(=S)NC(=O)/C=C/c1ccc(F)cc1)C1CCCCC1	-13	0.1	6	24	10	2.6	-12%	-2	-8	-2.0
Nc1ncc(Br)cc1S(=O)(=O)NCCC(=O)N1CCN(c2ccccn2)CC1	29	-1.1	-1	-2.0	-2	-11	x	6	6	-4.0
CN(Cc1ccco1)C(=O)C1CCC(=O)N(CCc2cccc(F)c2)C1 (stereo not given)	6	0.4	-4	3.9	-6	-13	x	2	11	-1.1
Cn1nc(OC(=O)Nc2ccccc2)cc1C(F)(F)F	u	-6.8	1	4.8	-27	x	-9%	x	x	x
COc1ccc(Nc2nc(N)nc(CSc3nnc(N)s3)n2)cc1	-5	0.8	-3	-5.1	2	x	7%	x	x	x
O=C(Nc1cccc(Cl)c1)c1cccc(N2C(=O)C3CC=CCC3C2=O)c1 (stereo not given)	13	-0.3	-9	-3.7	1	-0.5	x	-1	-14	-2.4
Oc1ccc(NCc2cccc(OCc3ccc(F)cc3)c2)cc1	3	-7.4	55	-3.1	x	10.0	2.4µM*	4	-5	31
CCC(CO)Oc1cc(NCc2ccc(OC)cc2)c2ncn(C(C)C)c2c1 (stereo not given)	x	0.1	-8	x	x	11	x	6	0	5.8
Cc1[nH]nc2ncc(C(=O)c3cc(Cl)cc(Cl)c3O)cc12	31	-0.3	-1	-3.0	-7	x	4%	x	x	x
CCCCN(C)CCn1c(=S)[nH]c2ncccc2c1=O	20	-0.1	-3	3.5	-10	x	14%	x	x	x
CCOC(=O)Cn1nc(C)n(-c2ccc(C(C)(C)C)cc2)c1=O	3	0.3	x	5.2	-3	x	-3%	x	x	x
CCn1cc(NC(=O)Nc2ccc(OC)c(OC)c2)c(C(N)=O)n1	4	0.2	2	2.3	1	x	19%	x	x	x
